# Assay outcomes: PubChem BioAssay, National Center for Advancing Translational Sciences (NCATS)
# ClpP mod: qHTS Assay for Activators of ClpP. purified B. subtilis ClpP, FRET peptide cleavage, 20 min. Potency, µM (titrated, usually from 57.5 µM), without a hit: at the top dose activity change, negative = active. hit rate 1.9% among 340,000. AID 651965, 2013; active = well fitted falling curve with a large enough effect; inconclusive = small, poorly fitted or top-dose-only effect; inactive = no such curve, though single readings can be large or run the other way; further: the source files actives as falling curves though it sought activators and does not explain the sign; nearly all actives have a fitted effect of over 65% in size; many hits overshoot -100%
# Target sequence (P80244 whole entry, looked up): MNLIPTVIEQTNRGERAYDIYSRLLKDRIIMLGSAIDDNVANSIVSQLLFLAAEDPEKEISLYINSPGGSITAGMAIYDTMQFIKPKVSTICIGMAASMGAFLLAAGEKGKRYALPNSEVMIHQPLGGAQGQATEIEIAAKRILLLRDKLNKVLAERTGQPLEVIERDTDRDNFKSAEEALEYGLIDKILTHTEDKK
#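 ClpP 10 microg/mL final, pH 8 Tris/KCl buffer with BSA, glycerol, Tween-20; compound pinned in; FRET-FV substrate; RT 20 min; Ex320/Em430; ΔFRET vs ADEP 5.8 microM, DMSO, no enzyme.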
# * marks the source's active call; other numbers are inactive results; ? = inconclusive. Potency means the concentration at half of the fitted maximal effect.
# Start of the listing, in advance (3 entries):
SMILES,ClpP mod
O=C(CSc1c2c(nc3ccccc13)CCC2)Nc1ccc(F)cc1,-2.3%
c1ccc(-c2cc3ncc4c(n3n2)-c2ccccc2OC4)cc1,1.1%
COCCc1nn2c(=O)cc(COC(=O)c3cccs3)nc2s1,-9.4%

# The listing, repeating the preview:
SMILES,ClpP mod
O=C(CSc1c2c(nc3ccccc13)CCC2)Nc1ccc(F)cc1,-2.3%
c1ccc(-c2cc3ncc4c(n3n2)-c2ccccc2OC4)cc1,1.1%
COCCc1nn2c(=O)cc(COC(=O)c3cccs3)nc2s1,-9.4%
O=C(NNc1ccc(F)cc1F)c1cccs1,-1.4%
O=C(COc1ccccc1-c1nnc(-c2ccccc2)o1)Nc1ccc(Br)cc1F,-2.4%
COC1=CC(=O)OC(c2cccc(C(F)(F)F)c2)C1 (centres undefined),1.8%
COc1cccc(-c2nc(CSCC(=O)NCCc3ccc(Cl)cc3)c(C)o2)c1,-18%
CCOC(=O)c1ccc(NC(=O)C2=C(C)C(=O)OC23CCN(C(C)=O)CC3)cc1,-2.0%
Cc1cc(C)cc(-n2nnc(-c3nc(-c4ccccc4F)no3)c2C)c1,-1.5%
CC(=O)Nc1ccc(C(=O)CSc2nnc3ccc4ccccc4n23)cc1,-5.0%
CCOc1ccc(CNCc2c(C(=O)O)c(C)n(Cc3c(F)cccc3Cl)c2C)cc1OC,-0.4%
COc1ccc(NC(=O)CSC2=Nc3ccccc3C3=NC(CCC(=O)NC4CCCCC4)C(=O)N23)cc1 (centres undefined),-2.0%
CCn1cc2nc(SCc3cccc(C(F)(F)F)c3)n(Cc3ccc(C)cc3)c(=O)c2n1,-3.1%
Cc1ccc(CNC(=O)c2ccc(N3Cc4ccccc4Oc4ncccc43)s2)cc1,?
Cc1ccc(CCNC(=O)C2CC(=O)N(CCc3ccc(C)cc3)C2)cc1 (centres undefined),-0.4%
O=CC(=O)c1ccc(F)cc1,4.0%
COc1cccc(-c2ncnn2-c2sc3c(c2C#N)CCCCC3)c1OC,1.0%
O=C(CCC(=O)N1Cc2ccccc2Oc2ncccc21)NCc1cccc(Cl)c1,0.1%
CCn1c(=O)cc(OCC(=O)NCc2ccccc2OC)c2ccccc21,-6.8%
CCOC(=O)c1cc(-c2ccc(OC)cc2)n(CCC(=O)Nc2ccc(OC)cc2OC)c1C,-4.0%
COc1cccc(CNC(=O)CNS(=O)(=O)c2ccc3nc(C)sc3c2)c1,-2.1%
Cc1ccc(NC(=O)CN2CCN(S(=O)(=O)c3ccc(C(C)C)cc3)CC2)cc1F,1.1%
Cc1cccc(-n2c(=O)c3ccccc3n(Cc3ccccc3)c2=O)c1,-18%
CCOC(=O)N1CCc2c(sc3c2c(=O)n(Cc2ccccc2)c(=O)n3Cc2cc(C)ccc2C)C1,1.0%
CN(C)S(=O)(=O)c1ccc(C(=O)N2CC(=O)Nc3ccc(Br)cc3C2c2ccc(F)cc2)cc1 (centres undefined),0.1%

# Two of these compounds in another layout:
> CCn1c(=O)cc(OCC(=O)NCc2ccccc2OC)c2ccccc21
  ClpP mod: -6.8%
> CCOC(=O)c1cc(-c2ccc(OC)cc2)n(CCC(=O)Nc2ccc(OC)cc2OC)c1C
  ClpP mod: -4.0%

# The list continues:
SMILES,ClpP mod
Cc1cc(C)c(NC(=O)CSc2nc(=O)n(Cc3cccnc3)c3c2CCC3)c(C)c1,-16%
CCCOc1ccc(CNC(=O)C(NS(=O)(=O)c2cccs2)C(C)C)cc1 (centres undefined),-2.6%
N#C/C(=C\c1cccc(F)c1)c1nc(-c2cc3c(ccc4ccccc43)oc2=O)cs1,-4.1%
COc1cccc(NC(=O)CN(C)S(=O)(=O)c2ccc3nc(C)sc3c2)c1,2.6%
Cc1cc(C)cc(N2C(=O)N(CC(=O)c3ccc(Br)cc3)c3ccccc3S2(=O)=O)c1,1.6%
Fc1ccc(Nc2nc(SCc3cccc(Cl)c3)nc3ccccc23)cc1,?
Cc1cc(NC(=O)C2CCCN(S(=O)(=O)c3cccc4nsnc34)C2)ccc1Br (centres undefined),-0.6%
COC(=O)c1c(C)sc(-c2c(-c3ccc4c(c3)OCCO4)[nH]c3c2c(=O)n(C)c(=O)n3C)c1O,-1.4%
COc1cccc(CNc2cc(C)nc3nc(-c4ccc(C)cc4)nn23)c1,9.5%
Cc1cn2c(=O)cc(COC(=O)c3ccc(NC(=O)c4ccccc4C)cc3)nc2s1,-6.6%
Cc1ccc(Cl)cc1N1CCN(C(=O)c2cccn2-c2nnc(N3CCCCC3)s2)CC1,-1.9%
O=C(NCc1ccccc1)C(c1cc2ccccc2o1)n1c(=O)c(-c2cc3ccccc3[nH]2)nc2ccccc21 (centres undefined),38%
COc1cccc(C(=O)N2c3ccc(C)cc3C(C)(c3ccccc3)CC2(C)C)c1 (centres undefined),0.4%
Cc1ccc(NC(=O)N2CCN(Cc3nc4ccc(C)cc4o3)CC2)cc1,-1.2%
Cc1ccc(S(=O)(=O)c2[nH]c(-c3ccccc3)nc2SCC(N)=O)cc1,-2.3%
O=C(CSc1nc2ncccc2o1)Nc1cccc(C(F)(F)F)c1,6.1%
COc1ccccc1CNC(=O)CCCCn1c(=O)c2ccccc2n(CC(=O)Nc2cc(Cl)ccc2C)c1=O,1.3%
O=C(CCn1c(=O)c2cccn2c2ccc(F)cc21)NCc1ccccc1F,-7.2%
Cc1nc2ccn(Cc3cccnc3)c(=O)c2cc1C(=O)N1CCN(c2ccccc2F)CC1,25µM*
O=C(Cn1ncc2c3ccccc3n(Cc3ccc(F)cc3)c2c1=O)NCc1cccs1,2.4%
CC(CCc1ccccc1)NC(=O)Cn1c(=O)nc(-c2ccccc2)c2cc(Cl)ccc21 (centres undefined),0.4%
CCc1ccc(C2C(C(=O)Nc3ccccc3OC)=C(C)Nc3c(C(=O)Nc4ccc(C)cc4)cnn32)cc1 (centres undefined),4.4%
COc1ccc(Br)cc1Cn1nnc(C(=O)Nc2ccc(C)cc2C)c1N,-14%
Cc1cc2c(cc1C)NC(CC(=O)Nc1cccc(Cl)c1)C(=O)N2 (centres undefined),4.4%
COc1ccccc1NC(=O)CN1CCCN(S(=O)(=O)c2ccc(Br)cc2)CC1,-2.3%
# Next part.
SMILES,ClpP mod
O=C(Cn1c(=O)ccc2cc(S(=O)(=O)N3CCCC3)ccc21)NCc1ccc(Cl)cc1,-7.9%
Cc1cccc(C)c1NC(=O)NCCc1c[nH]c2ccccc12,-12%
O=C(CC1C(=O)OCCN1Cc1ccccc1)Nc1cccc(C(F)(F)F)c1 (centres undefined),0.2%
COc1cccc(NC(=O)CSc2nc(-c3ccccc3)nc3c2Cc2cc(Cl)ccc2O3)c1,-5.1%
CC(C)(C)NC(=O)C(c1ccc(C(F)(F)F)cc1)n1c(=O)c(-c2ccccc2)nc2ccccc21 (centres undefined),?
Cc1ccc(CNC(=O)CS(=O)(=O)Cc2nc(-c3ccccc3C)oc2C)cc1,18%
Clc1cccc(CNc2ncnc3nc[nH]c23)c1,3.2%
O=S(=O)(Nc1ccc(-c2ccc(N3CCCC3)nn2)cc1)c1cc(F)ccc1F,-2.4%
CCOC(=O)C1CCN(CC(=O)Nc2cc(C)c3c(=O)oc4ccccc4c3n2)CC1,-7.0%
Cc1cc(C)c2nc(N3CCCC(C(=O)NCc4ccccc4F)C3)sc2c1 (centres undefined),1.2%
COc1ccc(-c2nsc(NC(=O)c3oc4cc(C)c(C)cc4c3C)n2)cc1,-9.6%
COc1ccc(N2CCN(C(=O)NCc3noc4ccccc34)CC2)cc1,-0.3%
Cc1nc2scc(C)n2c(=O)c1S(=O)(=O)Nc1cccc(C(F)(F)F)c1,?
Cc1cc(C)cc(NC(=O)Cn2c(=O)n(-c3cc(C)cc(C)c3)c(=O)c3oc4ccccc4c32)c1,26%
CCCN1CCN(CCCNC(=O)c2cnn(-c3ccc(F)cc3)c2-n2cccc2)CC1,0.2%
COc1ccc(NC(=O)Cn2ccn(-c3ccccc3)c(=O)c2=O)cc1,0.9%
O=C(c1cc2ccccc2oc1=O)N1CCN(c2ccc(F)cc2)CC1,-2.0%
COc1ccc(-c2cn3nc(N4CCCC(C(=O)NCc5ccccc5C)C4)sc3n2)cc1 (centres undefined),0.5%
CCN(c1ccccc1)S(=O)(=O)c1ccc(NC(=O)c2cc(=O)c3cc(C)cc(C)c3o2)cc1,0.9%
O=C(Nc1ccc(F)cc1F)c1ccc(-n2cnc3cccnc32)cc1,-6.6%
Cc1cc(C)n(C(C)CC(=O)Nc2ccc(Cl)cc2C)n1 (centres undefined),0.3%
Cc1cc(C)c(NC(=O)Nc2csc3c2CCCC3)c(C)c1,-1.6%
COc1ccccc1CNC(=O)CCC1N=C2c3ccccc3N=C(SCC(=O)Nc3ccc(N(C)C)cc3)N2C1=O (centres undefined),1.9%
Cc1ccc(CNC(=O)c2c(Nc3ccccc3C)sc(C(=O)c3ccc(F)cc3)c2N)cc1,-5.1%
COc1ccc(-n2c(=O)c3ccccc3n(CC(=O)NCCc3ccccc3)c2=O)c(OC)c1,-4.3%
# Next part.
SMILES,ClpP mod
COc1ccc(Nc2ncc3c(n2)CCN(Cc2ccc(Br)s2)C3)c(OC)c1,-27%
Cc1cn2c(=O)cc(COc3cccc(NC(=O)c4ccccc4Cl)c3)nc2s1,-4.5%
Cc1cccc(C)c1NC(=O)C1c2ccccc2OCC(=O)N1CC(F)(F)F (centres undefined),-1.0%
CCOC(=O)c1cccc(NC(=O)Cn2c(=O)c3cccn3c3ccccc32)c1,3.7%
Cc1ccc(NC(=O)c2oc3ccccc3c2NC(=O)c2ccc(F)c(F)c2)cc1,-24%
COc1ccc(Br)cc1C(=O)Nc1cccc2ccc(C)nc12,?
COc1ccc(CN2C(=O)c3ccccc3C2(C)c2nc3ccccc3[nH]2)cc1 (centres undefined),-1.9%
COc1ccc2nc(NS(=O)(=O)c3ccc(C)cc3)c(Nc3cc(Cl)ccc3OC)nc2c1,3.6%
O=C(CSc1nc2c([nH]c3ccccc32)c(=O)n1-c1ccccc1)N1CCCC1,-5.5%
CCCCc1ccc(C(=O)N/C(=C\c2ccc(C)cc2)C(=O)NC2CCCCC2)cc1,-3.1%
Cc1ccc(C)c(NC(=O)CSC2=Nc3ccccc3N=C(c3ccc(F)cc3)C2)c1,-0.6%
COc1cccc(CNC(=O)CCc2c(C)c3cc4c(C)coc4c(C)c3oc2=O)c1,-20%
Cc1ccc(NC(=O)c2cn3c4c(ccc(Cl)c4c2=O)OC(C)C3)cc1C (centres undefined),-4.9%
CCCCNS(=O)(=O)c1ccc2nc(-c3cccnc3)cc(C(=O)NCCC)c2c1,-1.2%
Cc1cccn2c(=O)c(C(=O)NC(C)c3ccccc3)cnc12 (centres undefined),4.6%
Cn1cccc1-c1cc2n(n1)CCC(=O)N2CCCC(=O)NCc1ccc(F)cc1,-4.7%
O=C(Nc1cc(Cl)cc(Cl)c1)c1cnn2c1NC(=C1CC1)C=C2C(F)F,-9.2%
O=C(Nc1ccc(F)cc1)C1CCN(S(=O)(=O)c2ccc3c(c2)CCCN3C(=O)C2CCC2)CC1,1.7%
Cc1cc(C)cc(NS(=O)(=O)c2ccc(-c3cc(C)no3)cc2)c1,0.8%
CCCSCCCNC(=O)C1CCN(c2nn3cc(-c4ccc(F)cc4)nc3s2)CC1,-1.2%
CCOC(=O)NC1(C(F)(F)F)NC(=O)N(c2ccc(C)c(C)c2)C1=O (centres undefined),-2.4%
O=C(CCc1nnc2n(Cc3ccccc3Cl)c(=O)c3ccccc3n12)Nc1ccc(F)cc1,-6.3%
COc1ccc(-c2cc3ccc(O)c(CN4CCCC(C)C4)c3oc2=O)cc1OC (centres undefined),4.2%
CC1CCN(c2ccc(-c3cccc(NS(=O)(=O)c4ccc(Cl)s4)c3)nn2)CC1,-7.2%
CCC(=O)Nc1ccccc1-c1nc2ccccc2n(C(CC)C(=O)Nc2cccc(C(C)=O)c2)c1=O (centres undefined),-2.1%

# Quoted from the listing.
# Reading for Cc1ccc(NC(=O)c2oc3ccccc3c2NC(=O)c2ccc(F)c(F)c2)cc1 in ClpP mod: -24%
# Reading for Cc1cccn2c(=O)c(C(=O)NC(C)c3ccccc3)cnc12 (centres undefined) in ClpP mod: 4.6%
# Reading for Cc1cccc(C)c1NC(=O)C1c2ccccc2OCC(=O)N1CC(F)(F)F (centres undefined) in ClpP mod: -1.0%
# Reading for CCC(=O)Nc1ccccc1-c1nc2ccccc2n(C(CC)C(=O)Nc2cccc(C(C)=O)c2)c1=O (centres undefined) in ClpP mod: -2.1%
# Reading for COc1ccc(Nc2ncc3c(n2)CCN(Cc2ccc(Br)s2)C3)c(OC)c1 in ClpP mod: -27%
# Reading for COc1ccc(CN2C(=O)c3ccccc3C2(C)c2nc3ccccc3[nH]2)cc1 (centres undefined) in ClpP mod: -1.9%
# Reading for Cc1ccc(NC(=O)c2cn3c4c(ccc(Cl)c4c2=O)OC(C)C3)cc1C (centres undefined) in ClpP mod: -4.9%

# Continuation:
SMILES,ClpP mod
Cc1ccc(-n2ncc3c(NCCc4ccc(S(N)(=O)=O)cc4)ncnc32)cc1,4.7%
CCCC12CN3CC(C)(CN(C1)C3c1cn(CC)c3ccccc13)C2=O (centres undefined),-4.4%
CCc1ccc(NC(=O)COC(=O)c2ccccc2OCC(=O)N(C)C)cc1,-3.6%
CCCn1c(SCc2nc(-c3cc(OC)ccc3OC)no2)nnc1-c1ccc(Cl)cc1,-2.3%
Cc1c(Cl)cccc1NC(=O)CCS(=O)(=O)c1ccc2c(c1)CC(=O)N2C,-4.1%
Cc1cccc(CNS(=O)(=O)c2ccc3[nH]c(=O)ccc3c2)c1,-10%
O=C(c1ccc(CS(=O)c2ccccc2Cl)o1)N1CCN(c2cccc(Cl)c2)CC1 (centres undefined),-2.3%
CSCCC(C(=O)Nc1c(C)cccc1C)n1c(-c2cnc(C)cn2)nc2ccccc21 (centres undefined),-5.1%
CCOC(=O)c1ccc(NC(=O)CN2Cc3ccccc3C2=O)cc1,1.6%

# This is a subset, so the mix of outcomes need not match the whole.
